Assay outcomes (PubChem BioAssay)
LANA-H2A inh – blocks KSHV LANA binding to histone H2A/H2B; Q9QR71; 0.6% of 320,000 active; inhibition, % (no concentration beside the values); cell-free LANA-H2A/H2B peptide, fluorescence polarization; AID 2629; in the data active means inhibition mostly above about 10%, no sharp cut-off; inactive means mostly below about 6.7%;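 further: stock transfer was 7.5 nL into about 10 µL; 0% = median of vehicle wells and 100% = median of positive control wells; one replicate is shown; the record names a cut of 25% in any replicate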
Target sequence (Q9QR71 whole entry, looked up): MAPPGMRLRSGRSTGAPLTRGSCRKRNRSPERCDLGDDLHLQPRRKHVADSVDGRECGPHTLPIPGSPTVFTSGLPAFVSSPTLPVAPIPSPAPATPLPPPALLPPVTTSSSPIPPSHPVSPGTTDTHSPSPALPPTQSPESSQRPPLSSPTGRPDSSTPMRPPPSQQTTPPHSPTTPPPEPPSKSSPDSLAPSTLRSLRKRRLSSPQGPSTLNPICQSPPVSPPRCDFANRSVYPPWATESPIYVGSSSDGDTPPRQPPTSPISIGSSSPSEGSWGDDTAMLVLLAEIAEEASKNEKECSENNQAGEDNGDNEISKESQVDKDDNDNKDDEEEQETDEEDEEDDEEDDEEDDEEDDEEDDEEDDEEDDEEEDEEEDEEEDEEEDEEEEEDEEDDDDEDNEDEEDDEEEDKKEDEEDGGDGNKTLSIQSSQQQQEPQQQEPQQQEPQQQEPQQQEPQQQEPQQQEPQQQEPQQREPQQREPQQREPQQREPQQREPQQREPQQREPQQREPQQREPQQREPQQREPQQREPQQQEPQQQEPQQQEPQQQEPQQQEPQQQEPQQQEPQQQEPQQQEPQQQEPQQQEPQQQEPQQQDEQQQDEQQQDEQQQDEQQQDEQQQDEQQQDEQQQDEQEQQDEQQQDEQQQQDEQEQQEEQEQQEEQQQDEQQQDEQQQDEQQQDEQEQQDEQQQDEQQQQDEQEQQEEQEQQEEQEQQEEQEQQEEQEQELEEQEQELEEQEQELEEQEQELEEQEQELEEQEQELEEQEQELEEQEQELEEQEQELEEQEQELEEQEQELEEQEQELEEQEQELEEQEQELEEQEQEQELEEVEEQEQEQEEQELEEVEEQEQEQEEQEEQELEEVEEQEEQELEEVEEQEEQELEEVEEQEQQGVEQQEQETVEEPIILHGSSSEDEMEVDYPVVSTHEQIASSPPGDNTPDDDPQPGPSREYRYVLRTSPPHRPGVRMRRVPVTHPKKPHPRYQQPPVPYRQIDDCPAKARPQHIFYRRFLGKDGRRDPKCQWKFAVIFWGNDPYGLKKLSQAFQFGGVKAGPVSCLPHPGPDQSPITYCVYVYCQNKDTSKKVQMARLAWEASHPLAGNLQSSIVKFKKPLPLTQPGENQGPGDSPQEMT
Beta cell apopt – beta cell apoptosis inhibition; protection from apoptosis, % (no concentration beside the values); INS-1E cytokine-induced death, ATP luminescence, 48 h; percent of positive-control rescue, neutral wells zero; 0.8% of 300,000 active;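 active means all replicates at 75% or more, or half of them and the mean; inconclusive means half reach 75% but not the mean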;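 further: 0% = cytokine-treated negative control wells and 100% = positive control rescue; higher means more ATP so stronger rescue from cytokine killing; wells of about 40 µL received 100 nL stock; the first replicate is given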
Calb FLC – affects C. albicans growth with fluconazole; 0.57% of 300,000 active; AID 1979; growth inhibition, % (concentration not given with the values); C. albicans CaCi-2 (fluconazole-resistant clinical isolate) + fluconazole, Alamar Blue growth, 48 h;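 active means most replicates above 75%; inconclusive means exactly half above 75%; inactive means most below 75%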;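 further: all wells also contain fluconazole at 8 µg/ml as a sub-toxic cotreatment; 0% = median of DMSO wells and 100% = median of geldanamycin control wells; wells of about 8 µL received 7.5 nL stock; the first replicate is given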
Beta2AR agonist – agonists of human beta-2 adrenergic receptor inducing internalization; Am2.2-beta2AR cells, FAP receptor internalization, flow cytometry; reference of the scale not given here; 0.43% of 340,000 active; P07550; response, % (test concentration not listed);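 active means response above a set limit, near 3 SD of response in nonfluorescent compounds, cut at about 42% in these data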;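 further: stock transfer was 100 nL into about 11 µL; a reference agonist was the positive control; negative values mostly stem from fluorescent compounds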
T cruzi inh – blocks replication of Trypanosoma cruzi. inhibition, % (no concentration beside the values). 1.4% of 300,000 active. AID 1885. T. cruzi beta-gal in NIH3T3, luminescence, 90 h;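 active means mean inhibition across valid replicates above about 55%, limit read from the data; inconclusive means mean below that limit but half or more replicates reach it; inactive means mean below it, under half of replicates reach it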;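 further: signal also drops with host cell toxicity which is not excluded here; 0% = plate median of DMSO wells and 100% = zero luminescence signal; higher percent means less beta-gal luminescence so fewer parasites; stock transfer was 50 nL into about 50 µL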
Ecoli rRNA inh – inhibitors of bacterial rRNA selective over humanized ribosomes; 1.6% of 350,000 active; GFP signal change (wild-type ribosome), % (test concentration not listed); E. coli WT GFP vs humanized-ribosome RFP mutants, fluorescence, 24 h; active compounds read low; DMSO median 0, no signal -100;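 active means significant combined selectivity score with lowered wild-type GFP, culture density cut under 30%, mutant RFP and density less affected; inactive means any of these conditions unmet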; further: one replicate is shown; some compounds called inactive have numbers as strong as hits
Bfl-1 A1 inh – inhibitors of the anti-apoptotic protein A1, read as caspase activation; caspase activation, % (test concentration not listed); 0.066% of 330,000 active; AID 2462; MEF A1-2A-BIM cells, Caspase-Glo 3/7 luminescence, 3 h; percent of clofoctol response, vehicle zero;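 active means over half of replicate activation scores above 10%, or exactly half above 10 with the replicate mean above 10; inconclusive means replicate mean below 10 yet half the replicates above 10; inactive means over half of replicates below 10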;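 further: wells of about 30 µL received 50 nL stock; many hits fall short of the cut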
ALR H2O2 inh – blocks human ALR sulfhydryl oxidase activity; P55789; purified ALR, DTT oxidation, H2O2 HRP-luminol luminescence; inhibition, % (test concentration not listed); 3.8% of 290,000 active; AID 485317;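 active means mean and each replicate at 75% or more; inconclusive means only one of the two met; inactive means neither met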;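 further: stock transfer was 7.5 nL into about 7.5 µL; 0% = neutral wells and 100% = wells with inactivated enzyme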
Ecoli rRNA inh OD600 – recorded beside Ecoli rRNA inh, whose call it bears; OD600 change, %; measured here: OD600 growth;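 optical density of the mix in the first replicate; 0 = DMSO median and -100 = no signal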
Ecoli rRNA inh RFP – also measured in Ecoli rRNA inh; calls as there; RFP signal change, %; measured here: RFP humanized mutant strains;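 first replicate; 0 = DMSO median and -100 = no signal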
An asterisk follows results filed as active; ? = inconclusive; nt = not tested or not shown. Some of the compounds tested (hit frequency here may not be typical).

SMILES	LANA-H2A inh	Beta cell apopt	Calb FLC	Beta2AR agonist	T cruzi inh	Ecoli rRNA inh	Ecoli rRNA inh OD600	Ecoli rRNA inh RFP	Bfl-1 A1 inh	ALR H2O2 inh
COc1cccc2[nH]c3c(N4CCC(C)CC4)ncnc3c12	4.4	32	56	-1	48	-19	-20	-5.6	-0.2	-7
CCC1(CC)Nc2ccccc2C(=O)N1c1ccc(OC)cc1	1.6	0	-7	-6	-3	7	4	1.6	-4.5	-13
COc1cccc(C2=NOC(C(=O)Nc3cc(OC)c(OC)c(OC)c3)C2)c1 (stereo unspecified)	5.0	-5	6	-3	-2	4	-3	0.8	0.8	-5
CN(Cc1c(F)cccc1Cl)c1nnnn1-c1ccccc1	0.1	3	6	0	6	nt	nt	nt	1.0	-2
Cc1nc(SCc2ccccc2F)c2oc3ccccc3c2n1	1.5	5	9	0	7	1	8	-1.9	-0.6	-2
O=c1cc(-c2ccccc2)nc(Sc2ccc([N+](=O)[O-])cc2[N+](=O)[O-])[nH]1	-0.7	-5	0	8	-2	4	5	0.9	0.1	16
CCCS(=O)(=O)c1nc(S(=O)(=O)c2ccc(C)cc2)c(NCc2ccccn2)s1	-6.5	-2	7	21	8	15	13	1.5	0.7	21
Cc1[nH]nc(SCC(=O)N2CCCCCC2)c1[N+](=O)[O-]	-0.9	-1	-2	-2	-12	4	-2	3.8	-1.5	-1
CC1CCCN(C(=O)CN2C(=O)CSc3ccc(S(=O)(=O)N4CCOCC4)cc32)C1 (stereo unspecified)	1.1	-4	-8	-3	-9	8	9	1.8	0.7	nt
Cc1c(C(=O)Nc2ccccn2)oc2c(Cl)cccc12	0.2	8	14	2	-7	0	10	-1.2	0.3	1
COc1ccccc1Nc1nc(N)nc(CSC(=S)N2CCCCC2C)n1 (stereo unspecified)	-24	0	-5	-4	17	nt	nt	nt	-0.6	nt
CCN(CC)CCNC(=O)Cn1c(=O)c2cccn2c2ccc(F)cc21	3.2	5	-1	-1	-2	9	2	-0.4	0.0	-6
CCC1=C(c2ccc(C)cc2)S(=O)(=O)N=C1N1CCC(C(=O)NCCCN2CCCCC2)CC1	1.0	-5	9	-7	2	-12	-9	-8.4	-0.1	-5
CCn1c(=O)cc(C(=O)OC)sc1=Nc1ccc(F)c(F)c1	17	-3	3	7	2	6	-6	2.2	-0.6	-2
Cn1c(C(=O)NCCN2CCc3ccccc3C2)cc2c(=O)[nH]c3ccccc3c21	-3.5	0	-9	-8	10	nt	nt	nt	-0.3	-10
COCCCNc1nc2nonc2nc1N1CCN2CCCC2C1 (stereo unspecified)	4.7	7	5	1	-8	16	10	4.6	0.0	-10
Cc1cccc(N2CCN(S(=O)(=O)c3ccc4c(c3)CCC(=O)N4)CC2C)c1 (stereo unspecified)	-0.1	-7	24	2	-9	nt	nt	nt	0.0	2
COc1ccc2cc(C(=O)Nc3ccc(F)cc3)sc(=O)c2c1OC	-0.9	3	-12	1	15	nt	nt	nt	0.0	-3
CCN(CC)C(=O)Cn1cc(C(=O)C(=O)Nc2ccc3c(c2)OCCO3)c2ccccc21	2.1	5	1	0	9	-20	-15	-4.2	-0.3	-12
CC1(C)CN2C(=S)N(c3ccccc3)C(c3ccccc3)N2C1 (stereo unspecified)	-1.4	1	-3	-4	-20	nt	nt	nt	?	-10
CCc1cc(=O)oc2cc(OS(C)(=O)=O)ccc12	0.2	3	-10	-8	-2	nt	nt	nt	-0.2	-6
COc1ccc(-c2nc(CN3CCN(C(=O)c4ccco4)CC3)c(C)o2)c(OC)c1C	-5.8	-11	-4	-12	6	-4	5	5.8	0.2	3
CCOC(=O)c1ccc(-n2c(C)nc3ccc(Br)cc3c2=O)cc1	-5.8	-2	1	-14	-4	0	-1	1.2	1.1	-12
Cn1c(C(=O)NCCN2CCOCC2)cc2c(=O)n(C)c3ccccc3c21	-5.9	0	12	-1	0	-7	-1	1.2	-0.2	-2

An excerpt from above in order of length of the SMILES, largest number first:
SMILES	LANA-H2A inh	Beta cell apopt	Calb FLC	Beta2AR agonist	T cruzi inh	Ecoli rRNA inh	Ecoli rRNA inh OD600	Ecoli rRNA inh RFP	Bfl-1 A1 inh	ALR H2O2 inh
O=c1cc(-c2ccccc2)nc(Sc2ccc([N+](=O)[O-])cc2[N+](=O)[O-])[nH]1	-0.7	-5	0	8	-2	4	5	0.9	0.1	16
COc1cccc(C2=NOC(C(=O)Nc3cc(OC)c(OC)c(OC)c3)C2)c1 (stereo unspecified)	5.0	-5	6	-3	-2	4	-3	0.8	0.8	-5
CCN(CC)CCNC(=O)Cn1c(=O)c2cccn2c2ccc(F)cc21	3.2	5	-1	-1	-2	9	2	-0.4	0.0	-6
CC1(C)CN2C(=S)N(c3ccccc3)C(c3ccccc3)N2C1 (stereo unspecified)	-1.4	1	-3	-4	-20	nt	nt	nt	?	-10
CCn1c(=O)cc(C(=O)OC)sc1=Nc1ccc(F)c(F)c1	17	-3	3	7	2	6	-6	2.2	-0.6	-2
COCCCNc1nc2nonc2nc1N1CCN2CCCC2C1 (stereo unspecified)	4.7	7	5	1	-8	16	10	4.6	0.0	-10

(more compounds)
SMILES	LANA-H2A inh	Beta cell apopt	Calb FLC	Beta2AR agonist	T cruzi inh	Ecoli rRNA inh	Ecoli rRNA inh OD600	Ecoli rRNA inh RFP	Bfl-1 A1 inh	ALR H2O2 inh
COc1ccc(CCn2c(C)nc3c(c(=O)c4ccccc4n3C)c2=O)cc1	11*	1	-7	-16	14	nt	nt	nt	1.2	5
CCc1nc(N)c(C#N)c(-c2ccco2)c1C	-3.6	-2	11	8	13	nt	nt	nt	0.5	-4
Cc1ccc(S(=O)(=O)N2CCN(c3ccccc3)CC2)c(C)c1	-5.5	6	6	5	-2	-27	-23	-0.6	0.0	4
CCN(Cc1nc(-c2ccc(OC)c(OC)c2)no1)C(=O)c1ccc2c(c1)OCO2	-1.6	nt	-2	-4	11	-3	-10	1.9	-0.2	-12
O=C(CN(Cc1ccccc1)S(=O)(=O)c1ccc(F)cc1)NCCC1=CCCCC1	-1.7	nt	3	-2	49	nt	nt	nt	0.6	0
Cc1ccc(S(=O)(=O)N2CCC(C(=O)N/N=C/c3cccnc3)CC2)cc1	7.6	-4	-20	-10	3	nt	nt	nt	-0.2	-2
COCCCN1C(=O)c2ccc(C(=O)N3CCN(c4ccc(OC)cc4)CC3)cc2C1=O	-0.7	-1	5	-11	-5	3	2	4.3	1.3	30
COC(=O)C1=C(N)Oc2c(oc(CO)cc2=O)C1c1c(F)cccc1Cl (stereo unspecified)	3.7	-2	36	-2	15	10	-11	-1.6	0.7	3
CN(Cc1ccccc1)C(=O)COc1cc(=O)n(C)c2ccccc12	1.1	0	-5	-8	1	nt	nt	nt	1.6	nt
C/C(=N/NC(=O)CNC(=O)Cc1ccccc1)c1ccc(Cl)cc1	-8.5	0	0	3	4	nt	nt	nt	1.4	-2
COc1cccc(C(=O)C2CCCN(C(=O)CCC3=NNC(=O)CC3)C2)c1 (stereo unspecified)	1.1	-3	10	-1	-5	6	4	-2.4	0.9	-31
O=c1cc(N=Nc2ccc(Cl)cc2)[nH]c(=O)[nH]1	0.2	10	19	51*	35	11	17	3.5	-0.6	-37
O=C(N/N=C/c1ccc(F)cc1)c1cc(-c2ccc3c(c2)OCO3)n[nH]1	7.8	16	-6	-6	3	nt	nt	nt	0.2	9
COc1cccc(-n2c(=O)c3c(C)c(C(=O)N(C)C)sc3n(CC(=O)NCC3CCCO3)c2=O)c1 (stereo unspecified)	3.9	-5	0	4	-8	10	7	0.6	0.5	10
C[C@@H]1C(=O)O[C@H](C)[C@H]1C[C@@H](O)[C@](C)(O)C1CC[C@@]2(O)C3=CC(=O)[C@@H]4C[C@@H](O)[C@@H](O)C[C@]4(C)C3CC[C@]12C (stereo partly specified)	0.1	-2	nt	1	nt	4	6	3.7	1.0	-18
COc1ccc(COc2ccccc2C(=O)Nc2ccccn2)cc1[N+](=O)[O-]	-4.5	-1	34	-26	-9	3	7	-4.3	-0.7	-4
CCC(C)(C)NC(=O)C(C(C)C)N(CC1CCCO1)C(=O)CNS(=O)(=O)c1ccccc1 (stereo unspecified)	-2.6	0	10	-3	-2	-4	-1	0.1	0.5	-1
CCCCCCn1cnc2c(oc3nc4c(cc32)CCCC4)c1=O	-1.5	7	-26	-20	-13	5	3	-4.0	0.1	-3
CCCCOC(=O)C1[C@H]2C(=O)N(c3ccccc3CC)C[C@]23C=C[C@H]1O3 (stereo partly specified)	2.7	-1	0	3	-4	nt	nt	nt	0.9	3
O=C(NC(NCCCN1CCOCC1)(C(F)(F)F)C(F)(F)F)C1CCCCC1	1.3	0	-1	3	3	nt	nt	nt	-0.9	-7
Nc1ccc(-c2nc3ccc(N)cc3o2)cc1	0.9	16	-6	-9	-7	-3	-4	-2.7	-5.4	100*
Cc1ccc(NC(=O)CSCC(=O)Nc2cccc(S(=O)(=O)N3CCCCCC3)c2)cc1	-4.5	-7	nt	1	nt	nt	nt	nt	-0.4	-4
Cc1ccc(C(CNS(=O)(=O)c2ccc(F)cc2C)N2CCN(C)CC2)cc1 (stereo unspecified)	2.6	4	-13	2	7	4	9	3.6	0.8	-1
O=C1CC(Sc2ncccn2)C(=O)N1c1ccccc1 (stereo unspecified)	-2.7	-6	3	-2	2	nt	nt	nt	0.7	3
CC(C)CCNC(=O)CCCCn1c(=O)[nH]c2ccsc2c1=O	6.4	1	-2	-11	-11	-3	-4	-2.1	?	-1
CC1(CC(=O)N/N=C/c2cc3c(cc2Br)OCO3)OCCO1	4.5	nt	-9	3	7	5	-3	-1.1	1.7	-5
COc1cc(C(=O)NCCN2CCCC2)cc(OC)c1OC	3.9	-9	11	10	0	nt	nt	nt	1.7	0
Cc1ccc(-c2cc(C(=O)N3CC4(C)CC3CC(C)(C)C4)no2)cc1 (stereo unspecified)	-1.5	-1	-7	3	-13	6	7	-1.1	0.7	nt
COc1ccccc1NC(=S)NNC(=O)c1ccccc1	6.8	0	-1	8	-6	nt	nt	nt	-1.5	?
O=C(O)CN1C(=O)/C(=C\c2ccccc2OCc2ccc(F)cc2)SC1=S	-0.1	-5	-4	-2	-11	-39*	-22*	-9.3*	0.5	12
Cc1ccccc1C(=O)c1c[nH]c(C(=O)NCCc2ccccn2)c1	nt	-4	-11	-3	-4	2	7	0.6	1.9	-3
COc1cc(C(=O)Nc2ccc3c(c2)C(=O)N(CCC(=O)O)C3=O)cc(OC)c1OC	1.0	-1	2	1	-26	nt	nt	nt	0.6	nt
